# T cruzi inh = T. cruzi replication inhibition. T. cruzi beta-gal in NIH3T3, luminescence, 90 h. inhibition, % (test concentration not listed). 300,000 compounds, 1.4% hits. AID 1885;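 active = mean inhibition across valid replicates above about 55%, limit read from the data; inconclusive = mean below that limit but half or more replicates reach it; inactive = mean below it, under half of replicates reach it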;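 note: signal also drops with host cell toxicity which is not excluded here; 0% = plate median of DMSO wells and 100% = zero luminescence signal; higher percent means less beta-gal luminescence so fewer parasites; stock transfer was 50 nL into about 50 µL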
# Calb FLC = affects C. albicans growth with fluconazole. C. albicans CaCi-2 (fluconazole-resistant clinical isolate) + fluconazole, Alamar Blue growth, 48 h. growth inhibition, % (concentration not given with the values). 300,000 compounds, 0.57% hits. AID 1979;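 active = most replicates above 75%; inconclusive = exactly half above 75%; inactive = most below 75%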;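 note: all wells also contain fluconazole at 8 µg/ml as a sub-toxic cotreatment; 0% = median of DMSO wells and 100% = median of geldanamycin control wells; wells of about 8 µL received 7.5 nL stock; the first replicate is given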
# RanGTP-Imp inh = disruptors of Ran-importin-beta complex formation – biochemical, FRET, CFP-Ran, YFP-importin-beta, homogeneous, primary screen. cell-free CFP-Ran/YFP-importin-beta FRET ratio. inhibition, % (concentration not given with the values). 300,000 compounds, 1.1% hits;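 active = most replicates above 15%; inconclusive = exactly half above 15%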;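 note: 0% = DMSO wells and 100% = Ran loaded with GDP instead of GTP; wells of about 40 µL received 100 nL stock; the first replicate is given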
# Beta apoptosis = beta cell apoptosis inhibition | INS-1E cytokine-induced death, ATP luminescence, 48 h; percent of positive-control rescue, neutral wells zero | protection from apoptosis, % (concentration not given with the values) | 300,000 compounds, 0.8% hits | AID 435005;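 active = all replicates at 75% or more, or half of them and the mean; inconclusive = half reach 75% but not the mean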;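 note: 0% = cytokine-treated negative control wells and 100% = positive control rescue; higher means more ATP so stronger rescue from cytokine killing; wells of about 40 µL received 100 nL stock; the first replicate is given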
# Bfl-1 A1 inh = inhibitors of the anti-apoptotic protein A1, read as caspase activation; MEF A1-2A-BIM cells, Caspase-Glo 3/7 luminescence, 3 h; percent of clofoctol response, vehicle zero; 330,000 compounds, 0.066% hits; caspase activation, % (concentration not given with the values);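 active = over half of replicate activation scores above 10%, or exactly half above 10 with the replicate mean above 10; inconclusive = replicate mean below 10 yet half the replicates above 10; inactive = over half of replicates below 10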;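 note: wells of about 30 µL received 50 nL stock; many hits fall short of the cut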
# Ecoli rRNA inh = inhibitors of bacterial rRNA selective over humanized ribosomes. E. coli WT GFP vs humanized-ribosome RFP mutants, fluorescence, 24 h; active compounds read low; DMSO median 0, no signal -100. GFP signal change (wild-type ribosome), % (concentration not given with the values). 350,000 compounds, 1.6% hits. AID 720706;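 active = significant combined selectivity score with lowered wild-type GFP, culture density cut under 30%, mutant RFP and density less affected; inactive = any of these conditions unmet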; note: one replicate is shown; some compounds called inactive have numbers as strong as hits
# Vif A3G = inhibitors of Vif binding to APOBEC3G peptide, primary screen, biochemical, TR-FRET, GST-Vif 1-94, biotin-A3G peptide, dose response retest (AID 1117319) | TR-FRET GST-Vif / biotin-A3G peptide binding; higher % means a stronger effect; test concentration not given here; strong numbers were not always called active | one-dose inhibition, %; IC50 in µM for titrated hits | 260,000 compounds, 0.57% hits;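 active = above the screen mean plus three standard deviations and confirmed in dose response; inconclusive = results disagree or hit not tested in dose response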;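 note: Vif residues 1-94 fused to GST binding biotinylated APOBEC3G peptide 110-148; 0% = full assay without inhibitor and 100% = GST in place of GST-Vif; retest series ran down from 100 µM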
# MLL AF4-AF9 inh = inhibitors of human MLL-AF4/AF9 interaction; P42568; AlphaScreen, biotin-AF4 peptide binding to FLAG-AF9; inhibition, % at 10 µM; 350,000 compounds, 0.47% hits;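 active = every replicate reaching a set inhibition limit, whatever the replicate mean, cut at about 25% in these data; inconclusive = mean inhibition reaches that limit but some replicates miss it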;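 note: 0% = plate neutral control median and 100% = total signal loss; the record names both 10 and 1 µM as test concentration; the first replicate is given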
# Target sequence (P42568 whole entry, looked up): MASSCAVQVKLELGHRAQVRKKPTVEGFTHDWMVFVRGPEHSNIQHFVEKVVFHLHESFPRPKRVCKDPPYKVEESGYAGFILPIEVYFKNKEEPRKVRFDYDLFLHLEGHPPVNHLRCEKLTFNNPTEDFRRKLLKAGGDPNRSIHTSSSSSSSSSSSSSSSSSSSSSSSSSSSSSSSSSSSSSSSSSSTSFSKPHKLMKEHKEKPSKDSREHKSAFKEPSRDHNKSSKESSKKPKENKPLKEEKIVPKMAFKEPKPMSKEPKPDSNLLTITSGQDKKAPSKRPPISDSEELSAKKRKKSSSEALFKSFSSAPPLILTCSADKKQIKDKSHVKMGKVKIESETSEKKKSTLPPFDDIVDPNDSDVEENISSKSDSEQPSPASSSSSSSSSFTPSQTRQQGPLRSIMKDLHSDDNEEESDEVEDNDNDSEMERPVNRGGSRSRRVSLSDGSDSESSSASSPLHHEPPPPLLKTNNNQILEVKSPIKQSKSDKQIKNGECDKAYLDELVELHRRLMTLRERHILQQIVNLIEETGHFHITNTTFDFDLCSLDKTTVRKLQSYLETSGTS
# Ecoli rRNA inh OD600 = second read-out of Ecoli rRNA inh, no call of its own (marks repeat the call); OD600 change, %; measured here: OD600 growth;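 optical density of the mix in the first replicate; 0 = DMSO median and -100 = no signal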
# Ecoli rRNA inh RFP = further read-out of Ecoli rRNA inh, marked with its call; RFP signal change, %; measured here: RFP humanized mutant strains;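 first replicate; 0 = DMSO median and -100 = no signal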
# * marks the source's active call; other numbers are inactive results; ? = inconclusive; . = not tested or not shown; & = joins results of further samples.
SMILES,T cruzi inh,Calb FLC,RanGTP-Imp inh,Beta apoptosis,Bfl-1 A1 inh,Ecoli rRNA inh,Ecoli rRNA inh OD600,Ecoli rRNA inh RFP,Vif A3G,MLL AF4-AF9 inh
O=C(O)CCCNC(=O)/C=C/c1ccco1,-12,5,-3.2,-6,0.2,13,20,3.6,.,-42
CC/C(=N\NC(=O)c1ccc(CN(C)S(=O)(=O)c2ccc(C)cc2)cc1)c1ccc(OC(F)F)cc1,10,-25,-1.7,5,0.8,8,4,-5.2,-7%,5.2
COC(=O)c1cc(S(=O)(=O)N2CCCC(C)C2)cn1C (stereo unspecified),-16,2,-4.6,-6,-0.6,10,10,1.0,.,-1.3
Cc1ccc(C(C)C)c(OCC(O)CNC2CCCC2)c1 (stereo unspecified),-8,-32,-4.6,7,0.0,-3,-3,2.0,-3%,-5.2
CCCNS(=O)(=O)c1ccc(OCC(=O)N2CCC(C(=O)OCC)CC2)cc1,3,22,-0.6,3,0.1,.,.,.,-4%,.
CCOc1ccc(S(=O)(=O)N2CCOCC2)cc1NC(=O)CSC(=S)N1CCCC1,-5,3,?,6,0.8,-12,-18,3.5,0%,-3.5
CCOc1ccccc1N1CSC2=C(C#N)C(c3c(OC)ccc4ccccc34)CC(=O)N2C1 (stereo unspecified),10,1,0.7,-10,0.0,3,-1,4.5,?,3.8
Nc1n[nH]c(-c2ccccc2)n1,-16,-6,-3.3,-1,-1.0,.,.,.,2%&14%,.
CCOC(=O)c1c(C)n(C)c2ccc(OC)c(NC(=O)CCN3CCC(Cc4ccccc4)CC3)c12,7,1,1.5,3,-0.2,-8,-2,0.5,.,-10
Cc1ccnc2nc(C(=O)OCC(=O)Nc3ccc4c(c3)OCCO4)nn12,.,.,.,-5,-0.2,19,28,-0.6,-6%,-0.9
OC1CCN(Cc2cccc(Oc3ccccc3)c2)CC1,68*,-7,-3.1,-4,-0.9,.,.,.,4%,.
CN1/C(=C\C(=O)Nc2cccnc2)c2ccccc2CC1(C)C,-4,-22,-2.2,9,-0.1,16,7,5.6,16%,-3.7
CC(C)CN1C(=O)/C(=C/c2cccs2)NC1=S,-10,26,-1.6,0,0.8,-24,-28,-12,-3%,.
CCc1nnc(NC(=O)c2cccnc2SC)s1,19,?,0.5,-7,0.5,13,12,3.9,2%,-5.7
Cc1sc(NC(=O)c2ccc(F)cc2)c(CN2CCCCCC2)c1C,7,22,0.8,4,-1.2,-4,-4,-2.2,1%,4.7
CCOC(=O)N1CCC(NC(=O)C2CCCN(C(=O)c3cc4sccc4n3C)C2)CC1 (stereo unspecified),-23,2,-2.1,1,0.0,-4,-13,-3.3,-1%,0.7
CN(CC(=O)NCC1CCCCC1)CC(=O)Nc1ccc(F)cc1,.,.,.,-4,0.4,-2,-6,-2.3,.,-0.8
Oc1[nH]c2ccccc2c1N=Nc1cccc(Cl)c1,-21,-6,-0.3,0,-2.5,13,22,-0.5,3%,-0.1
CN(C)C(CNC(=O)c1ccco1)c1cccs1 (stereo unspecified),-7,3,-1.1,0,1.6,7,4,-0.7,1%,-18
CC(=O)N1CCC(N2CCN(c3ccccc3F)CC2)CC1,7,34,-13,4,0.0,.,.,.,?,.
CN1CCN(S(=O)(=O)c2ccc(NC(=S)NC(=O)C3CC3)cc2)CC1,6,9,-0.2,-6,0.2,.,.,.,-6%,.
CCC(C)c1c(O)nc(SCC(=O)N2CCCCC2)[nH]c1=O (stereo unspecified),0,-2,-3.5,-1,-0.6,9,14,7.5,.,-2.6
COC(=O)c1cc(CSc2nc3ccccc3c(=O)n2C)oc1C,-13,2,-0.5,37,0.8,3,1,-4.8,-11%,-0.7
COc1cccc(C(=O)NCCSc2ccc(F)cc2)c1,7,3,3.5,-1,-0.8,-30,-28,-3.6,-3%,-1.2
Cn1nnnc1SCC(=O)N1c2ccccc2CCc2ccccc21,2,-3,1.7,-1,0.1,.,.,.,4%,.
CCCn1c(SCC(=O)c2cc(OC)ccc2OC)nnc1-c1ccco1,5,10,-0.7,-5,-0.1,.,.,.,10%,.
COc1ccccc1C(C#N)N1N=C(C)CC1(C)C (stereo unspecified),-1,-4,1.3,-3,0.7,18,21,-0.8,65%,-4.3
Cc1cc(C)c2oc(=O)cc(CN3CCN(Cc4ccc5c(c4)OCO5)CC3)c2c1,50,0,3.5,.,.,.,.,.,-1%&7%,.
O=C(Nc1nccs1)C1CC2CCC1C2 (stereo unspecified),-4,-2,1.1,-4,0.4,.,.,.,-2%,.
CCOC(=O)CSc1nnc(CNC(=O)c2cccs2)n1-c1ccccc1,-15,-6,1.6,-11,0.6,.,.,.,68%,.
O=c1[nH]c2cc(S(=O)(=O)CCO)ccc2o1,-9,-7,-0.4,2,-0.2,20,4,-0.1,0%,-9.8
O=C(Nc1cccc2c1CCCC2)c1ccc(Cl)c([N+](=O)[O-])c1,-8,-6,-1.1,-5,-0.5,.,.,.,2%,.
O=S(=O)(NC(=NCc1ccccc1)c1ccc(F)cc1)c1ccc(Cl)cc1,-5,6,0.8,1,0.7,-14,1,4.5,-1%,-1.6
CC(C)CN(C(=O)COC(=O)c1ccc2c(c1)OCO2)c1c(N)n(Cc2ccccc2)c(=O)[nH]c1=O,-9,.,1.5,2,0.0,4,8,-0.6,-5%,-9.0
CCc1nnc(NC(=O)CSc2nc(-c3ccccc3)c(-c3ccccc3)o2)s1,6,5,5.4,.,-1.6,5,5,6.0,-1%,1.7
Cc1ccc2c(CN3CCN(Cc4ccc5c(c4)OCO5)CC3)cc(=O)oc2c1C,33,-27,2.0,-2,0.3,16,7,4.8,-10%&-5%,1.8
O=C(CN1CCOCC1)Nc1cc([N+](=O)[O-])ccc1Cl,-10,-33,1.1,-3,-2.9,13,2,-4.1,2%,-1.4
CC(C)C(C(=O)N1CCOCC1)N1C(=O)c2ccccc2C1=O (stereo unspecified),-11,-30,-6.0,0,1.0,10,10,-2.4,9%,-2.4
COCCC(=O)N1CCc2ccc(NC(=O)c3ccc(C(F)(F)F)cc3)cc2C1,0,0,-3.0,.,-0.4,0,2,-3.7,.,-2.0
Cc1ccc(-c2nnn(CC(=O)N(CC(=O)NC3CCCCC3)c3ccccc3F)n2)o1,6,-5,-0.1,.,.,2,1,-1.4,-13%,0.5
Cc1cccc(NC(=S)N=Nc2c(O)[nH]c3ccccc23)c1,64*,12,9.0,48,0.2,.,.,.,9%,.
CC(C)(C)OC(=O)NNC(=O)NC12CC3CC(CC(C3)C1)C2,-10,-15,1.0,-3,0.1,10,12,2.7,5%,-0.9
CCOc1ccc2ncc(C(=O)c3ccc(OC)cc3)c(N3CCN(CC)CC3)c2c1,11,-9,3.8,4,0.8,.,.,.,-6%,.
CCc1ccc(-c2nc(SCC(=O)NC3CC3)n[nH]2)cc1,-3,.,-4.1,-2,1.4,-4,-12,-2.7,1%,-1.5
CCCCc1oc2c(c(=O)c1C)C(=O)CC(c1ccccc1)C2 (stereo unspecified),25,4,-2.1,6,-0.3,.,.,.,3%,.
S=C(NCCc1ccccc1)N/N=C/c1ccccc1Cl,-12,2,-0.1,-5,0.5,-21,-32,24,12%,4.1
CC(C)(C)S(=O)(=O)c1cnc2c(-c3ccsc3)cnn2c1N,6,-5,0.7,5,-0.9,4,2,1.0,-2%,0.0
Cc1nc2ccc(NC(=O)CCS(=O)(=O)c3ccc(Cl)cc3)cc2s1,2,-7,2.3,0,-0.1,9,0,3.2,.,-44
COC(=O)c1ccc(NC(=O)Nc2cccc(F)c2)cc1,4,8,-2.2,2,-7.5,-57,-75,-17,-5%,-1.9
N#Cc1cccc(NC(=O)CSc2ccccc2)c1,5,-27,6.2,-6,0.4,2,9,-1.4,0%,.
C=CCC(C(=O)OC)(C(=O)OC)c1ccc([N+](=O)[O-])cc1[N+](=O)[O-],59*,-5,0.8,-3,0.2,15,7,0.0,-2%,-7.4
CC1=C(C(=O)OCC2CCCCC2)C(c2ccc(F)cc2)NC(=O)N1 (stereo unspecified),11,7,-2.1,3,1.0,-1,0,-0.4,.,-1.7
CCC1(C)Cc2c(sc3nnn(CC(=O)Nc4ccc(Cl)cc4)c(=O)c23)CO1 (stereo unspecified),10,9,-6.0,-8,-0.4,.,.,.,10%,.
O=C(CSc1nnnn1-c1ccccc1)Nc1ncc(Cc2ccccc2Cl)s1,-6,2,0.7,-8,-0.1,13,24,2.2,5%,-3.6
CCN(CC)CCCNC(=O)C1CCN(C(=O)c2cc3sccc3n2Cc2ccc(F)cc2)CC1,44,-10,2.7,0,0.0,10,5,6.9,-1%,-25
CN(Cc1ccccc1F)C(=O)CN1CCN(S(=O)(=O)c2ccc3c(c2)OCCCO3)CC1,.,.,.,4,2.8,-12,-18,3.7,-3%,1.8
CCCCCNc1c(C(=O)OCC)c(=O)[nH]c2ccccc12,28,7,2.4,13,-0.5,.,.,.,0%,.
COc1ccc(Cl)c(N2CCN(CCCNC(=O)Nc3ccc(C)cc3)CC2)c1,28,-5,-4.6,.,0.0,.,.,.,-1%,.
COc1ccc(NC(=O)c2ccc3nccnc3c2)cc1,-11,-1,-3.4,-3,-3.1,.,.,.,2%,.
COc1cc2cc(C(c3nnnn3C3CCCC3)N(C)C3CCCCC3)c(=O)[nH]c2cc1OC (stereo unspecified),12,36,5.6,-3,0.0,.,.,.,72%&-3%,.

# New compounds follow.
SMILES,T cruzi inh,Calb FLC,RanGTP-Imp inh,Beta apoptosis,Bfl-1 A1 inh,Ecoli rRNA inh,Ecoli rRNA inh OD600,Ecoli rRNA inh RFP,Vif A3G,MLL AF4-AF9 inh
c1ccc(C(c2ccccc2)N2CCN(Cc3nnnn3C3CCCCC3)CC2)cc1,26,6,-0.9,3,-0.4,.,.,.,4%,.
Cc1cc(NC(=O)CSCC(=O)Nc2ccc(Cl)c(C(F)(F)F)c2)no1,-4,11,-4.8,4,0.0,-9,-21,-1.5,-10%,-0.1
COC(=O)[C@@H]1CCCN1C(=O)CCc1nnc(C2CCCCC2)o1,-7,-24,1.8,-2,-0.6,15,6,2.3,-1%,-0.5
CSc1ccc(CNC(C)(C)CO)cc1,7,-7,?,-5,1.0,13,8,1.2,1%,-0.9
O=C(O)CCSc1nnc(COc2cccc3cccnc23)n1-c1ccccc1,0,29,-3.5,-3,0.3,4,7,-0.8,4%,-1.0
CCCC(C(=O)NC(C)(C)C)N(CC1CCCO1)C(=O)c1snc(C(N)=O)c1N (stereo unspecified),-23,-9,?,-5,-1.5,10,15,-0.4,.,-3.4

# Bioassay records (PubChem BioAssay)

# This is a subset; count on the stated rates, not on these rows.
